# Menin MLL FP FL = displaces fluorescein MLL peptide from human menin; Fluorescence polarization, fluorescein-MLL peptide displacement from menin; FP activity change, % at 61.4 µM; 290,000 tested, under 10 active; AID 1766; inconclusive = falling polarisation curve, or a change in total fluorescence; inactive = total fluorescence flat and polarisation flat or rising; no compound was filed as active; the % refers to the polarisation; negative = inhibition;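 also: % of control where 0% means no effect; inhibitors lower the polarisation; unlabelled MLL peptide was the positive control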
# gsp ag = gsp mutant agonism; Potency, µM (titrated, usually from 76.9 µM), for inactives: at the top dose activation (cAMP increase), usual class: activators; hit rate 0.13% among 340,000; gsp mutant cells, cAMP HTRF, 30 min; control for the full effect not named in the record; AID 624287; active = well fitted activation curve with a large enough effect; inconclusive = small, poorly fitted or top-dose-only effect, or another doubt; inactive = no such curve, though single readings can be large or run the other way; cell line not stated here;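 also: phosphodiesterase inhibitor Ro 20-1724 added with compounds to block cAMP breakdown; potency is read from the fitted curve at half-maximal effect; nearly all actives have a fitted effect of over 60% in size; about a fifth of the inactives were tested at one dose only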
#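 Cells in DMEM/10% FBS with G418 were pretreated with compounds in DMSO plus […] (300 uM stock) for 30 min at 37C. cAMP was measured by HTRF (cAMP-d2 plus anti-cAMP antibody-K) after 30 min at room temperature.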
# CtBP-E1A blk = inhibitors of CtBP/E1A interaction; AlphaScreen GST-E1A/His-CtBP binding, 1536-well; stronger effect = lower value; control for the full effect not named in the record; activity change, % (no concentration beside the values); hit rate 0.49% among 340,000; in the data active means activity change below about -65%; inconclusive means about -30% to -65%; inactive means above about -30%; also: % is scaled to controls: 0 for no effect and ±100 for the full control effect; compound concentration not given in the record
#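 Steps: dispense buffer (Tris pH 8.0, NaCl 300 mM, TCEP 1 mM, BSA, Tween 20); add 5X protein mix (GST-E1A, His-CtBP, 125 nM each); pin 23 nL compound; 2 h at 37 °C, dark; add 5X beads (50 ug/mL); 1 h; read.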
# Sfp inh = blocks B. subtilis Sfp PPTase activity; hit rate 3.5% among 310,000; Potency, µM, for the others: max response, negative = inhibition, most hits filed as inhibitors; AID 1490; Biochemical Sfp PPTase activity, qHTS; Q9F4F7; active = well fitted inhibition curve with a large enough effect; inconclusive = small, poorly fitted or top-dose-only effect, or another doubt; inactive = no such curve, though single readings can be large or run the other way;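 also: the enzyme is Sfp with the accession as filed and its product quenches rhodamine fluorescence; potency is read from the fitted curve at half-maximal effect; 0% = enzyme reaction without inhibitor and -100% = no enzyme wells; top concentration of the series not given in the record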
#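 Step 1, compound plus 15 nM Sfp-PPTase, 15 min, room temperature. Step 2, add rhodamine-CoA (5 uM) and BHQ-2-YbbR (12.5 uM). Step 3, read 525/598 nm fluorescence at 0 and 30 min.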
# TRPV1 potentiator = potentiators of human vanilloid receptor 1 (TRPV1); AID 540277; potentiation, % at 8.33 µM; hit rate 0.02% among 320,000; TRPV1-expressing cells, Fluo-8 calcium influx, capsaicin EC20 potentiation; host cell line not named in the record; control for the full effect not named in the record; active means potentiation above 80%; inconclusive means 30% to 80%; inactive means below 30%; also: 0% is about no effect
# Target sequence (Q8NER1 whole entry, looked up): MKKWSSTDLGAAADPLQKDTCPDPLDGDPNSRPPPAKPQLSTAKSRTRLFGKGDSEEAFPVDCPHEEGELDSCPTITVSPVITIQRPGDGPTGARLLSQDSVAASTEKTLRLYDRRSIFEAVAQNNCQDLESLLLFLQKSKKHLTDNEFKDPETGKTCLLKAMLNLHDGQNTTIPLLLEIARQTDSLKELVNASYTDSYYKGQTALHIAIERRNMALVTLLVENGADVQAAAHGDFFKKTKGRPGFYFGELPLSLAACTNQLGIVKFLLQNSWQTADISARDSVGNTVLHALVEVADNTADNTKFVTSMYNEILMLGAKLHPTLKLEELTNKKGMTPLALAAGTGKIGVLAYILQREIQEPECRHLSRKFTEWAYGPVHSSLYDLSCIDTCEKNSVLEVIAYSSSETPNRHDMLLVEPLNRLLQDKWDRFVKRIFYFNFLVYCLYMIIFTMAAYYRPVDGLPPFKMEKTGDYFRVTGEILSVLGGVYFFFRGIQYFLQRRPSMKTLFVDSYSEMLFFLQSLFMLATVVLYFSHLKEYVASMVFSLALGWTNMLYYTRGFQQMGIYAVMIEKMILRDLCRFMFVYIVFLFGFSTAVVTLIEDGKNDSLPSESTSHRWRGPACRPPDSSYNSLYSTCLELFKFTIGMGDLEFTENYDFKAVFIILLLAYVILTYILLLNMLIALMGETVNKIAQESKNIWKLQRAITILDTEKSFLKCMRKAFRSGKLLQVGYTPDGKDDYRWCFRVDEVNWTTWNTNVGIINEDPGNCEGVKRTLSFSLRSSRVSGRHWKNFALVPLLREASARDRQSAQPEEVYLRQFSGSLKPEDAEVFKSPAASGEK
#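 Cells expressing TRPV1 were dye-loaded with Fluo-8 and read kinetically: 10 s baseline, 3 min after compound (agonist portion), then 2 min after EC20 capsaicin (allosteric enhancer portion). Calcium-bound dye fluorescence at 480/520 nm.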
# ClpP mod = qHTS Assay for Activators of ClpP | Potency, µM (highest dose often 57.5 µM), inactives show at the top dose activity change, negative = active | ATP-dependent Clp protease proteolytic subunit (Bacillus subtilis (strain 168)), P80244 | purified B. subtilis ClpP, FRET peptide cleavage, 20 min | hit rate 1.9% among 340,000; active = well fitted falling curve with a large enough effect; inconclusive = small, poorly fitted or top-dose-only effect; inactive = no such curve, though single readings can be large or run the other way; also: potency is read from the fitted curve at half-maximal effect; the source files actives as falling curves though it sought activators and does not explain the sign; nearly all actives have a fitted effect of over 65% in size; many hits overshoot -100%
# Target sequence (P80244 whole entry, looked up): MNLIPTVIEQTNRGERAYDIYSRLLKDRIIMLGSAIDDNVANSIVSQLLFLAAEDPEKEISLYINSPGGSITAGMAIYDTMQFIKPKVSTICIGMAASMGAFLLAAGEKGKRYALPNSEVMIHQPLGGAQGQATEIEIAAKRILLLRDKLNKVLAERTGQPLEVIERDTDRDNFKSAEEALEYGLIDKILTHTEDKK
#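 Buffer: 100 mM Tris/HCl pH8, 100 mM KCl, 0.05% low protease BSA, 2.5% glycerol, 0.01% Tween-20. ClpP 10 microg/mL final; 20 min RT; delta FRET normalized to ADEP and DMSO controls.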
# gsp antag = gsp mutant antagonism | hit rate 0.4% among 340,000 | Potency, µM (doses to about 76.9 µM), for inactives: top-dose activity change, negative = inhibition, usual class: inhibitors | AID 624288 | gsp-mutant cells, cAMP HTRF, 30 min; control for the full effect not named in the record; active = falling curve of any shape with a large fitted effect; inconclusive = falling curve, mostly with a smaller effect; inactive = flat or rising curve; cell line not stated here;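 also: intracellular cAMP measured with PDE inhibitor Ro 20-1724 present during compound exposure; potency is read from the fitted curve at half-maximal effect; % is scaled to controls: 0 for no effect and ±100 for the full control effect; nearly all actives have a fitted effect of over 65% in size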
#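 Measurement of cellular cAMP by homogeneous time-resolved fluorescence following a 30 min compound exposure at 37C. The PDE inhibitor […] was present throughout; the assay buffer was DPBS with 0.05% BSA and 0.005% Tween 20.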
# Numbers without * were called inactive; u = inconclusive; x = not tested or not shown; & = joins results of further samples; [ ] = dose if it differs, or a comment. Only part of the results is shown; count on the stated rates, not on these rows.
SMILES,Menin MLL FP FL,gsp ag,CtBP-E1A blk,Sfp inh,TRPV1 potentiator,ClpP mod,gsp antag
O=C(Nc1ccccc1)Oc1ccccc1,2.0,-65.2%[inhibitor],-23.9,15.5%,2.5,-1.7%,4.7%
O=C(NN1C(=O)C2C3C=CC(C4CC34)C2C1=O)c1ccccc1Cl (stereo unspecified),3.4,-33.4%[inhibitor],-0.8,8.6%,-12.5,0.0%,7.7%
CCC1CN1P(=O)(c1ccccc1)N1CC1CC (stereo unspecified),x,-0.1%[15.4 µM],-1.9,x,x,-0.8%,7.5%
CCCCCCn1c(=O)c(C(=O)Nc2c(C)n(C)n(-c3ccccc3)c2=O)c(O)c2ccccc21,3.8,-4.0%[15.4 µM],8.1,16.6%,-0.2,x,6.2%
COc1ccccc1-n1c(O)c(/C=C2\C=Nc3ccccc32)c(=O)[nH]c1=O,13.9,-4.9%,4.0,u,20.0,1.7%,4.9%
CCCCn1c(=O)c(C(=O)Nc2ccccn2)c(O)c2ccccc21,2.8,16.7%,15.3,10.5%,-4.9,0.1%,23.2%
CCCCn1cnc2cc(NCc3cccc(OC)c3O)ccc21,2.3,-3.4%,-6.6,1.0%,-26.9,31.6µM*,3.5%
CN(C)CC1CCCCC1OC(=O)c1ccc(Cl)c(Cl)c1 (stereo unspecified),1.5,15.1%,x,-11.6%,11.1,1.6%,-8.4%
Cc1oc(-c2ccc(F)cc2F)nc1CN1C[C@@H]2C[C@@H](C1)c1cccc(=O)n1C2,2.3,-1.6%[15.4 µM],-27.5,-2.5%,-4.6,x,-0.1%
NNCc1cccc(O)c1,3.3&6.3,x,0.5,7.8%,28.3,-0.3%,-0.2%
O=C1NC(=S)N(C2CC2)C(=O)/C1=C/c1ccc2c(c1)CCN2CCCCl,u,-17.0%,-5.3,20µM*,6.8,-7.0%,-3.1%
O=C1NC(=O)C(Nc2ccccc2)C(=O)N1,x,-43.2%[inhibitor],-13.7,x,x,x,6.9%
Clc1ccc2c(N3CCNCC3)ccnc2c1,0.4,u,4.5,1.5%,-0.6,-22.9%,23.5%
COc1ccc(CCC(=O)NCCc2cnc[nH]2)cc1,-5.9,2.3%,6.5,2.2%,11.5,-0.4%,4.3%
CCC1C(C#N)=C(N)Oc2c1c(=O)oc1ccccc21 (stereo unspecified),-6.3,22.3%,2.0,12.7%,-2.9,24.2%,2.6%
C=C(C=O)C[C@@H]1C[C@H](O)C2OC3C[C@]4(C)OC5/C=C\CC6OC7C(CC=CCC6OC5CCCC4OC3CC2O1)OC1CC2OC3CC(=O)OC3C[C@@H](C)C[C@@]2(C)OC1C[C@@H]7C (stereo partly specified),6.1,x,-0.9,-0.7%,u,-2.4%,-3.1%
Cc1ccnc(-n2c(C)cc(/C=C3\C(=O)NC(=S)N(C)C3=O)c2C)c1,11.5,6.9%[15.4 µM],5.3,25.1µM*,2.3,0.5%,-9.8%
CC(Cc1ccccc1)[n+]1cc(/N=C(\[O-])N(C)C)on1 (stereo unspecified),1.5,-14.1%,9.4,17.2%,-3.3,1.4%,11.8%
CCn1c(=O)cc(OCC(=O)N2CCC3(CC2)OCCO3)c2ccccc21,1.3,u,-13.1,8.1%,2.8,-7.8%,-1.9%
COC(=O)C1=C(c2c(C)noc2C)C[C@@H]2CC[C@H]1N2C(=O)NC1CC1,x,2.3%,3.7,x,-8.6,1.2%,7.3%
COc1ccc(CCNC(=O)C(=O)NCC2OCCN2S(=O)(=O)c2ccc(Cl)cc2)cc1 (stereo unspecified),1.1,u,8.1,17.6%,0.8,-1.6%,-9.0%
Cc1cc(Cl)ccc1OC(C)C(=O)O (stereo unspecified),3.6,x,6.5,20.1%,5.4,1.1%,-2.2%
Cc1nc2ccc(Nc3nc4cc(S(=O)(=O)N5CCOCC5)ccc4o3)cc2s1,3.0,-73.8%[inhibitor],-18.5,u,-6.6,-0.3%,-6.2%
COc1ccc(C(=O)N2Cc3cnnn3-c3ccccc3C2C#N)cc1 (stereo unspecified),x,x,6.0,x,x,-1.2%,0.1%
CN1C(=O)N(C)C(=O)C2(Sc3ccccc3C2=O)C1=O,-8.7,-29.9%,0.0,u,-6.8,75.0%,0.2%
CN[C@@H](C)[C@@H](O)c1ccccc1,5.6,x,5.4,9.9%,-1.6,0.1%,0.0%
CN1CC(C(=O)c2ccc([N+](=O)[O-])cc2)C(c2ccc(Cl)cc2)C1 (stereo unspecified),1.2,-9.6%,-27.7,1.6%,9.1,x,9.9%
O=C(CSc1nnc(NC(=O)c2cc(Br)ccc2Cl)s1)NCC1CCCO1 (stereo unspecified),x,u,1.8,11.5%,-4.2,-1.8%,-17.9%
Cc1ccc(C)c(Cn2c(C(=O)O)c(C=O)c3ccccc32)c1,u,-12.6%,-2.7,-8.2%,4.9,-6.1%,-1.1%
CCN(CC)C(=O)c1ccc(NC(=O)c2cc(-n3cnnc3)ccc2Cl)cc1,-3.8,0.9%,5.6,11.1%,-2.8,-2.4%,9.9%
CCC1(c2ccccc2)C(=O)NC(=O)NC1=O,-1.3,x,5.2,-4.7%,x,0.4%,-1.5%
CCCC[N+]12CCC(CC1)C(C(=O)c1cccs1)C2 (stereo unspecified),4.3,-2.8%,-0.3,10.9%,-7.1,-3.3%,-6.5%[15.4 µM]
O=C1NC(=O)C(CCc2ccccn2)(Cc2ccc3c(c2)OCO3)C(=O)N1CCc1ccccc1 (stereo unspecified),5.4,-4.5%,-0.3,u,4.7,0.2%,-19.0%
C[C@H](NC(=O)CCC(=O)N1C[C@H]2C[C@H](C1)c1cccc(=O)n1C2)c1ccccc1,-3.2,x,4.1,15.9%,-1.3,-6.0%,8.7%
Cc1ccccc1[N+](=O)[O-],x,x,21.9,x,-7.8,0.9%,7.1%
CC(=O)NC1CC2CCCC(C1)N2 (stereo unspecified),1.8,7.6%,0.5,12.6%,4.8,-2.1%,18.5%
Cc1ccc(C)c(NC(=S)NCCc2cnc[nH]2)c1,-2.6,-2.5%[15.4 µM],7.8,-3.4%,6.0,x,-5.0%
CCCCOP(=O)(OCCCC)/C(C#N)=C(/C)O,6.3,u,-7.6,-7.3%,8.6,-1.5%,4.2%
CC1(C)CN(S(=O)(=O)OCC(Cl)(Cl)Cl)C(=O)N1,-3.4,x,6.0,12.8%,-32.9,0.1%,7.1%
CN1CCCN(C(=O)COc2ccc(Br)cc2)CC1,6.1,-66.4%[inhibitor],0.9,10.0%,-3.4,-0.4%,1.7%
Cc1cccc(-n2c(/C=C/c3ccccn3)nc3ccccc3c2=O)c1,7.0,-2.9%,2.3,22.6%,-18.6,3.8%,-24.4%
COc1cc(C(=O)NC(=S)N2C[C@H]3C[C@H](C2)c2cccc(=O)n2C3)cc(OC)c1OC,-5.6,15.4%,-1.3,u,2.0,-2.1%,2.9%
COC1=C[C@@H]2C3=C([C@@H]2C1=O)[C@@H](NC(C)=O)CCc1cc(OC)c(OC)c(OC)c13,x,x,1.8,x,1.3,0.1%,-4.2%
COC(=O)C1=C(c2ccc(C(C)=O)cc2)C[C@@H]2CC[C@H]1N2C(=O)NC(C)C,x,-39.4%[inhibitor],10.7,x,-34.8,-0.4%,5.9%
O=C(Cc1c[nH]c2ccccc12)Nc1nccs1,-3.1,-26.9%,5.8,8.5%,0.8,1.1%,11.4%
CC(CC(C#N)(c1ccccc1)c1ccccc1)N1CCCCC1 (stereo unspecified),x,-19.5%,-15.4,x,x,x,2.0%
COC(=O)C1=C(c2ccc(OC(F)(F)F)cc2)C[C@@H]2CC[C@H]1N2C(=O)NCc1ccc(F)cc1,x,x,4.7,x,-14.5,-0.4%,-27.9%
O=C(CCc1nnc2ccc(NCc3ccccc3)nn12)N1CCC2(CC1)OCCO2,x,u,6.3,10.7%,0.4,-9.0%,u
CCOC(=O)CSc1ccc(C(=O)N2CCC3(CC2)OCCO3)cc1[N+](=O)[O-],-1.7,-32.7%[inhibitor],-2.7,4.2%,-19.4,-1.1%,1.3%
C[C@]12CCC(=O)C=C1CCC1C2CC[C@@]2(C)C1CC[C@@]2(O)CC#N (stereo partly specified),-8.2,1.1%,49.4,22.9%,-12.0,0.4%,-29.4%
N[C@@H]1CC[C@@]2(O)[C@H]3Cc4ccc(O)c5c4[C@@]2(CCN3CC2CC2)C1O5 (stereo partly specified),x,x,-1.1,x,x,-1.3%,3.3%
CC(=O)NN1C(=O)c2ccccc2NC1c1cccnc1 (stereo unspecified),-2.3,u,-10.0,2.3%,0.4,4.5%,7.1%
C=C1[C@H]2CC[C@H]3[C@]4(C)C[C@H](O[C@@H]5OC(CO)[C@@H](OSOOO)[C@H](OS(=O)(=O)O)[C@H]5OC(=O)CC(C)C)C[C@@H](C(=O)O)[C@H]4CC[C@]3(C2)[C@H]1O (stereo partly specified),x,x,6.0,x,x,1.3%,8.9%
CCc1nc2ccccc2c(=O)n1-c1cccc(OC)c1,-1.0,-2.8%,-0.5,-12.1%,11.5,-2.7%,3.2%
Cn1cc2c([N+](=O)[O-])cc([N+](=O)[O-])cc2n1,0.7,x,x,3.8%,2.0,x,x
Cn1c(O)c(C(c2ccncc2)c2c(O)n(C)c(=S)n(C)c2=O)c(=O)n(C)c1=S,3.1,-20.1%,u,13.9%,1.0,-3.9%,7.8%
NCC(O)c1ccc(O)cc1 (stereo unspecified),-5.8&0.9&-1.4&3.2&3.4,x,-21.9,-9.0%&-2.4%&33.3%&22.1%,5.3,-1.1%,-3.8%
COC(=O)C(O)(c1ccc(NC(=O)Oc2ccccc2)cc1)C(F)(F)F (stereo unspecified),1.6,-1.1%,8.0,7.7%,-5.4,1.4%,-0.6%
Cc1c(N=Nc2c(O)[nH]c(=O)[nH]c2=O)c(=O)n(-c2ccccc2)n1C,6.1,-36.0%[inhibitor],x,44.7µM*,2.9,-0.9%,0.2%

# Assay outcomes as filed in PubChem BioAssay.
